2A Renilla – FMDV 2A StopGo reporter, Renilla signal; actives 0.32% (n = 120,000); Potency, µM (doses to about 57.5 µM), inactives show at the top dose signal change, negative = less light; HEK cells with a luciferase reporter of 2A StopGo recoding; active means well fitted falling curve with a large enough effect; inconclusive means small, poorly fitted or top-dose-only effect; inactive means no such curve, though single readings can be large or run the other way; also: nearly all actives have a fitted effect of over 55% in size; overnight with compound
2A firefly – lowers the firefly signal of an FMDV 2A StopGo reporter; AID 1745856; actives 0.23% (n = 120,000); HEK cells with a luciferase reporter of 2A StopGo recoding; Potency, µM (highest dose often 57.5 µM), for inactives: at the highest dose signal change, negative = less light; active = well fitted falling curve with a large enough effect; inconclusive = small, poorly fitted or top-dose-only effect; inactive = no such curve, though single readings can be large or run the other way; also: nearly all actives have a fitted effect of over 60% in size; overnight with compound
Numbers without * were called inactive; ? = inconclusive; & = joins results of further samples; [ ] = remark or other dose. % is scaled to controls: 0 for no effect and ±100 for the full control effect; potency is read from the fitted curve at half-maximal effect. These rows are one share of the data. The share of hits here may be higher or lower than overall.

Value order – 2A Renilla | 2A firefly
1) O=C(c1ccc(Cl)cc1)c1ccccc1C(=O)N1CCN(C(=O)CC2CCCC2)CC1
  -23% | ?
2) CCCc1cc(=O)[nH]c(Nc2cc(C)cc(C)c2)n1
  -6% | -14%
3) CCCc1cc(=O)[nH]c(Nc2nc(C)c3cc(C)c(C)cc3n2)n1
  1% | 3%
4) CCOc1ccccc1-n1c(C)nc2cc(C(=O)O)ccc21
  -14% | -16%
5) O=C(NCc1ccccc1Cl)c1nnc(Cc2cccc(F)c2)o1
  -11% | -3%
6) C=CCN1C(=O)COc2ccc(NC(=O)c3cc(=O)c4cc(Cl)ccc4o3)cc21
  -8% | -12%
7) O=C(Nc1ccc2ccccc2n1)c1ccc(S(=O)(=O)N2CCCCC2)cc1
  32µM* | ?
8) Cc1cc(CCCOc2c(C)cc(-c3noc(C(F)(F)F)n3)cc2C)on1
  -3% | -13%[11.5 µM]
9) NC(=O)c1nn(CC(=O)Nc2cccc3cccnc23)c(=O)c2ccccc12
  -6% | 7%
10) O=C(O)c1cc(Br)ccc1I
  0% | 7%
11) CC(C)N1CCCC(CNC(=O)CCc2c[nH]c3ccccc23)C1 (stereo not given)
  -10% | -14%
12) O=C(O)C(c1c[nH]c2cc(Cl)ccc12)N1CCN(C/C=C/c2ccccc2)CC1 (stereo not given)
  -18% | -7%
13) Cc1ccc(Cl)cc1NC(=O)c1ccc(-c2nc(CSc3ccccc3)c(C)o2)cc1
  ? | ?
14) Cc1cccc(C(=O)N/N=C/c2ccc(N(C)C)cc2)c1
  38%[activator] | 291%[activator]
15) C=CCNC(=O)COCC(=O)O
  6% | -3%

Continuation:
Value order – 2A Renilla | 2A firefly
16) CCCCOC(=O)C[N+](C)(C)CCOC1CC2CCC1(C)C2(C)C (stereo not given)
  -5% | -16%
17) Cc1ccc(-c2cc(C(=O)Nc3cc([N+](=O)[O-])ccc3C)no2)cc1F
  -6% | 0%
18) O=S(=O)(NCc1ccccc1)c1ccc2[nH]c3c(c2c1)CCCCC3
  201%[activator] | 17%
19) Cc1c(Cl)cccc1N(CC(=O)N1CCc2ccccc2C1)S(C)(=O)=O
  57%[activator] | 6%
20) Cc1nc(-c2cccs2)c(CCC(=O)N2CCN(c3cccc(Cl)c3)CC2)s1
  -5% | 3%
21) COc1cc(C2NC(=O)NC(C)=C2C(=O)Nc2cc(C)cc(C)c2)ccc1O (stereo not given)
  -3% | -13%
22) Cc1ccc(Cn2cc3c(n2)-c2c(oc(C(=O)Nc4ccc(F)cc4F)c2C)CC3)cc1
  -18% | -21%
23) CN1C(=O)C(NC(=O)C(=O)NCc2ccncc2)c2ccccc21 (stereo not given)
  1% | 1%
24) Cc1nnc(N2CCN(c3ccc(Cl)cc3)CC2)c2c1nnn2Cc1ccc(F)cc1
  -7% | -14%
25) Cc1cc(Cl)ccc1S(=O)(=O)NCCCC(=O)O
  9% | -8%
26) CCc1nnc(SCC(=O)Nc2ccc(OC)c(OC)c2)c2cc3occc3n12
  -10% | -12%
27) CC(C)c1ccc(NC(=O)Cn2c(=O)n(CCc3ccccc3)c(=O)c3ccccc32)cc1
  -2% | 12%
28) C/C(=N\NC(N)=S)C1CCCCCCCCCCC1
  11% | 25%
29) CCCCCCNc1nc2c(c(=O)[nH]c(=O)n2C)n1CC(O)COC(C)C (stereo not given)
  11% | -5%
30) O=C(NCC(c1cccnc1)N1CCc2ccccc2C1)C(=O)Nc1ccccc1F (stereo not given)
  -7% | 41%[activator]

(more compounds)
Value order – 2A Renilla | 2A firefly
31) CNc1nc(-c2ccc(N(C)S(C)(=O)=O)cc2)cs1
  34%[activator] | 4%
32) Cc1ccc(C)c(NC(=O)Cn2nnc(C(=O)NCc3ccccc3Cl)c2N)c1
  -7% | -12%
33) Oc1ccc(C2(c3ccc(O)cc3)CCCC2)cc1
  -27% | -11%
34) Cc1cc(C)c2c(=O)cc(C(=O)N(Cc3cccs3)C3CCS(=O)(=O)C3)oc2c1 (stereo not given)
  19% | 7%
35) O=C(c1cc(-c2ccc(F)cc2)nc2ccccc12)N1CCN(Cc2ccncc2)CC1
  26% | 177%[activator]
36) Cn1cnc(S(=O)(=O)N2CCC(C(=O)NCc3ccccc3Cl)CC2)c1
  15% | 20%
37) CCc1ccc(N(CC(=O)Nc2ccccc2C(=O)NCC2CCCO2)S(C)(=O)=O)cc1 (stereo not given)
  9% | -1%
38) Cc1cccc(C)c1NC(=O)COC(=O)Cn1cnc2c1c(=O)n(C)c(=O)n2C
  6% | 13%
39) Cc1ccc(NC(=O)CN2CCN(c3ccc(C(F)(F)F)cn3)CC2)c(F)c1
  2% | 3%
40) COC(=O)C1=C(CN2CCN(C)CC2)NC(=O)NC1c1ccc(C)cc1 (stereo not given)
  -5% | 4%
41) COc1cccc(CNC(=O)CSc2c3c(nc4ccc(Cl)cc24)CCCC3)c1OC
  -4% | 5%
42) CC1=C(C)C(c2cn(C)c3ccccc23)N(C(C)(C)C)C1=O (stereo not given)
  1% | -5%
43) CN(C)CCn1cc(C(=O)c2cc(F)ccc2O)cc1-c1nc2ccccc2c(=O)[nH]1
  -3% | 4%
44) N#Cc1ccccc1CSc1nnc2ccc3ccccc3n12
  -1% | 2%
45) Cc1ccn2c(=O)cc(CSc3ccc4ccccc4n3)nc2c1
  -7% | 68%[activator]

Laid out differently: entries from further up
[31] CNc1nc(-c2ccc(N(C)S(C)(=O)=O)cc2)cs1
  2A Renilla: 34%[activator]	2A firefly: 4%

[32] Cc1ccc(C)c(NC(=O)Cn2nnc(C(=O)NCc3ccccc3Cl)c2N)c1
  2A Renilla: -7%	2A firefly: -12%

[33] Oc1ccc(C2(c3ccc(O)cc3)CCCC2)cc1
  2A Renilla: -27%	2A firefly: -11%

Reprinted at random: 2 entries already listed.
Value order – 2A Renilla | 2A firefly
34) Cc1cc(C)c2c(=O)cc(C(=O)N(Cc3cccs3)C3CCS(=O)(=O)C3)oc2c1 (stereo not given)
  19% | 7%
39) Cc1ccc(NC(=O)CN2CCN(c3ccc(C(F)(F)F)cn3)CC2)c(F)c1
  2% | 3%

(listing goes on)
Value order – 2A Renilla | 2A firefly
46) Cc1[nH]c2ccccc2c1C(=O)COC(=O)c1ccccn1
  3% | 8%
47) COCCOC(=O)c1oc2c(c1C)C(=O)CC(c1ccco1)C2 (stereo not given)
  65%[activator] | 0%
48) COC(=O)c1c(NC(=O)CCCOc2ccc(C)cc2)sc2c1CCCC2
  -13% | -12%
49) Cc1ccc2[nH]c(=O)c3cc(C(=O)NCc4cccc(Cl)c4)sc3c2c1
  3%&3% | 7%&-1%
50) COc1ccccc1-c1nnc(SCC(=O)c2ccc(Cl)cc2)n1-c1ccccc1
  0% | 31%[activator]
51) Cc1cc(NCCNc2ccc(C#N)cn2)nc(C)n1
  1% | 0%
52) COc1ccccc1CNC(=O)CCCn1c(=O)c2ccccc2n(Cc2ccccc2C#N)c1=O
  2%&2% | -5%&11%
53) O=c1cc(CN2CCN(CCO)CC2)c2cc(Cl)c(O)cc2o1
  -5%&4% | 7%&4%
54) COc1ccc(-c2cc3nc(C)c(CCC(=O)NC4CCCCC4)c(C)n3n2)c(OC)c1
  1% | 0%
55) CCc1ccc(-n2nc3ccc(NC(=O)c4cc5ccccc5o4)cc3n2)cc1
  -12% | -10%
56) O=S(=O)(NCCc1nnc2ccc(SCc3ccccc3Cl)nn12)c1ccccc1
  104%[activator] | ?
57) O=C(Nc1onc2c1CCCC2)c1cccc(Cl)c1
  45%[activator] | -54%
58) Cc1c(C)n(CCCN2CCOCC2)c2ncn3nc(-c4ccc(F)cc4)nc3c12
  -12% | 32%[activator]
59) CCCCn1cc(S(=O)(=O)c2ccc(OC)cc2)c(=O)c2cc(F)c(N3CCOCC3)cc21
  110%[activator] | -2%
60) CCOC(=O)CC(NC(=O)c1cc2cc(Br)cc(OC)c2oc1=O)c1ccc(OC)cc1 (stereo not given)
  -10% | -5%

Next structures follow:
Value order – 2A Renilla | 2A firefly
61) CCOc1cccc(C(=O)Nc2ccc3oc(-c4ccc(OC)cc4)nc3c2)c1
  0% | 12%
62) Clc1ccc(C2=Nn3c(nnc3-c3ccccn3)SC2)cc1
  -7% | -10%
63) Nc1c(C(=O)Nc2ccccc2Br)sc2nc(-c3cccs3)ccc12
  -5% | 16%
64) O=C(/C=C/c1ccc(Cl)cc1)Nc1nc(-c2cccs2)ns1
  -5% | -8%
65) O=C(CSc1nnnn1-c1ccccc1)c1ccc(Cl)s1
  66%[activator] | 92%[activator]
66) O=C(CSc1ncc2c(n1)-c1ccccc1N(Cc1ccc(F)cc1)S2(=O)=O)c1ccc(Br)cc1
  3% | -7%
67) COc1cccc(N2CCN(C(=O)c3ccc4c(=O)n(CCc5ccccc5)c(=O)[nH]c4c3)CC2)c1
  -2% | -6%
68) CC(Sc1ccccc1Cl)C(=O)NCCC(=O)N1CCCCC1 (stereo not given)
  25% | 7%
69) CCOCN(C(=O)Cn1c(C)nc2ccccc21)c1c(C)cccc1CC
  -5% | -5%
70) CCOC(=O)c1c(C)n(CC)c2ccc(OC(=O)c3ccccc3)cc12
  6% | 19%
71) CCNCCc1ccccc1
  -3% | -7%
72) Cc1cccc(Cn2c(N3CCN(C(=O)c4ccco4)CC3)nc3c2c(=O)n(C)c(=O)n3C)c1
  -3% | 4%
73) CCCCCCc1cnc(-c2ccc(OC(F)(F)F)cc2)nc1
  2% | 31%[activator]
74) CCCCCc1ccc(-c2ccc(OC(F)F)cc2)nc1
  19% | 0%
75) CCOC(=O)c1cccc(NC(=O)Cn2ncc3c(=O)oc4ccccc4c32)c1
  -13% | -25%

(further entries)
Value order – 2A Renilla | 2A firefly
76) Cc1ccc(-n2c3nc(=O)[nH]c(=O)c-3cc3ccc(Cl)cc32)c(C)c1
  -6% | -3%
77) Cc1cccc(CNC(=O)Cn2ccc3cc(S(=O)(=O)N4CCCCCC4)ccc32)c1
  192%[activator] | 7%
78) COc1ccc(CNc2nc3ccccc3nc2NS(=O)(=O)c2cccc3nsnc23)cc1
  118%[activator] | 11%
79) CCOc1ccc(C(=O)Nc2cccc(NC(=O)c3ccc(C(C)(C)C)cc3)c2)cc1Br
  -11% | 115%[activator]
80) CCOc1ccc(C(=O)Nc2cc(C)ccn2)c(OCC)c1
  37%[activator] | 257%[activator]
81) CSCc1nnc2c3ccccc3c(-c3ccc(C)c(S(=O)(=O)N(C)CCO)c3)nn12
  74%[activator] | 0%
82) O=C(Cn1nc(-c2ccc(Cl)cc2)ccc1=O)NCc1ccccc1Cl
  0% | 0%
83) Cn1c(=O)c2ccccc2n(CC(=O)Nc2ccc(C(F)(F)F)cc2)c1=O
  19% | 18%
84) COc1c(C)cc(Br)cc1C(=O)Nc1sc2c(c1C(N)=O)CCC(C)C2 (stereo not given)
  15% | 12%
85) CN(C(=O)c1ccc2c(c1)N(Cc1cccc(Cl)c1)C(=O)c1ccccc1S2(=O)=O)C1CCCCC1
  94%[activator] | -32%
86) O=C1CCCC2=C1C(c1cccc(Cl)c1Cl)n1nnnc1N2 (stereo not given)
  -11% | -3%
87) COc1ccc(Oc2cc(CNS(=O)(=O)N3CCCCCC3)ccn2)cc1
  19% | 18%
88) Cc1cc(C)c2c(CN3CCN(C)CC3)cc(=O)oc2c1
  -11% | -7%
89) CC(=O)N1CCN(C(C(=O)O)c2c[nH]c3ccc(C)cc23)CC1 (stereo not given)
  -3% | 5%
90) COCCN1C(=O)c2oc3ccc(C)cc3c(=O)c2C1c1ccc(C(=O)OC)cc1 (stereo not given)
  -19% | -23%

New compounds follow:
Value order – 2A Renilla | 2A firefly
91) CC(C)c1nnc2ccc(N3CCC(C(=O)O)CC3)nn12
  -9% | -8%
92) Cc1c(-c2ccn[nH]2)cnn1C
  -2% | 0%
93) COc1cc(C(=O)/C=C/c2ccc(Cl)cc2)ccc1OCC(=O)O
  -19% | -2%
94) COc1ccc(Nc2c(-c3ccco3)nc3cccc(C)n23)cc1
  -15% | -1%
95) CCOc1ccc(N(CC)C(=O)CCc2nc(-c3ccccc3F)no2)cc1
  6% | -2%
96) CCOc1ccccc1CNC(=O)c1cccc(NC(=O)c2nnc(C)s2)c1
  75%[activator] | 38%[activator]
97) Cc1cccc(N2CCN(S(=O)(=O)c3ccc4oc(=O)c5ncn(C)c5c4c3)CC2)c1C
  8% | 9%
98) CCCCCC/C(CCCCCCC/C(CCCCCC)=N/NC(N)=O)=N/NC(N)=O
  8% | 4%
99) O=C(NCCSc1ccccc1)C1CC2CCC(C1)C21SCCS1 (stereo not given)
  -18% | 4%
100) COc1ccc(N2CCN(CCCNC(=O)Nc3ccccc3Cl)CC2)cc1
  -9% | -14%
101) CC(=C/c1ccccc1)/C=C1/Cc2ccccc2C1=O
  0% | 112%[activator]
102) CCOc1ccc(NC(=O)CSC2=Nc3ccccc3C3=NC(CC(=O)NCc4ccc5c(c4)OCO5)C(=O)N23)cc1 (stereo not given)
  0% | 122%[activator]
103) CC(C)NC(=S)NN=C1CCC(C(C)(C)C)CC1 (stereo not given)
  7% | 9%
104) COc1ccc(C(=O)CC2(O)C(=O)N(CCc3ccccc3)c3ccc(Br)cc32)cc1OC (stereo not given)
  3% | -19%
105) CCN1CCN(c2oc(-c3ccc(F)cc3)nc2C#N)CC1
  3% | 22%

Next entries
Value order – 2A Renilla | 2A firefly
106) CCCCn1c(-c2ccc(OC)cc2)nc2c(=O)n(C)c(=O)[nH]c21
  -1% | 3%
107) COC(=O)c1cnn(-c2ccc(C(=O)Nc3cccc(C(C)=O)c3)cc2)c1N
  -7% | -12%
108) Cc1cccc(-c2nc(CSc3nc4ccncc4[nH]3)c(C)o2)c1
  ? | ?
109) COc1ccc(-c2cc(C(F)(F)F)nc(NCc3ccccc3)n2)cc1
  4µM* | ?
110) C=CCN(CC#CC(=C)C)CC1CC1
  3% | 9%
